# IDH1 R132H inh – blocks human mutant IDH1 R132H enzyme; O75874; Potency, µM (titrated, usually from 76.6 µM), for the others: at the top dose activity change, negative = inhibition, usual class: inhibitors; IDH1-R132H enzyme, NADPH consumption, diaphorase/resazurin fluorescence; 390,000 tested, 0.093% active; AID 602179; further: potency means the concentration at half of the fitted maximal effect; on the % scale 0 is the no-effect control and ±100 the full control effect; nearly all actives have a fitted effect of over 65% in size
# Target sequence (O75874 whole entry R132H, stated change not applied): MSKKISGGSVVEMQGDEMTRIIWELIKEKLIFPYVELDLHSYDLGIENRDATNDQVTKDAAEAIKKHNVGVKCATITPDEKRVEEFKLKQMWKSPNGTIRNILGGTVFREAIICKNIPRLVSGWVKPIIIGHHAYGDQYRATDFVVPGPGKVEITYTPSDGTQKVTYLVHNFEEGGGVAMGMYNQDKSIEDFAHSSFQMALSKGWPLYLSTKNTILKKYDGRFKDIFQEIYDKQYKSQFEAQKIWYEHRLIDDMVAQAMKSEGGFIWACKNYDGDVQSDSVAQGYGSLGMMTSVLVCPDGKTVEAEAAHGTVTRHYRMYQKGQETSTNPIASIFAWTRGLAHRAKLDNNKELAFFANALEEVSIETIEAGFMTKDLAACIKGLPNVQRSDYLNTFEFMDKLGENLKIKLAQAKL
#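 IDH1-R132H (0.5 ug/mL) preincubated 30 min with compound, then NADPH (0.016 mM) and alpha-KG (2 mM) added; 80 min at RT, pH 7.5. Remaining NADPH coupled via diaphorase/resazurin to fluorescence (540/590 nm); concentration-response curves normalized to no-enzyme control.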
# TRHR agonist – agonists of human TRH receptor; TRHR cells, calcium flux fluo-8, FDSS agonist mode; activation, % at 2 µM; 360,000 tested, 0.18% active; AID 493084; in the data active means activation above about 30%; further: 0% is about no effect
# Target sequence (P34981 whole entry, looked up): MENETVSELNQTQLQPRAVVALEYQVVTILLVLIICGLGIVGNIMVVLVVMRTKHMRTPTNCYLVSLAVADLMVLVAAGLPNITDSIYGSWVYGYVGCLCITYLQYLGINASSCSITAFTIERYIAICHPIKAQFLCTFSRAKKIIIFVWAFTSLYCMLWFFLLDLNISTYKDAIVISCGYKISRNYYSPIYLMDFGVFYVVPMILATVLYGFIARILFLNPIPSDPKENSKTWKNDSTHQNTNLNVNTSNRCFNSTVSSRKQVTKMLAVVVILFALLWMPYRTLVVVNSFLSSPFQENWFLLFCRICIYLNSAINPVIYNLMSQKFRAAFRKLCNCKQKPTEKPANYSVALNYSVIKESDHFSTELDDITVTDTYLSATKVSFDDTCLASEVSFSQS
#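 Read-out: compound-evoked intracellular calcium rise in TRHR cells, fluo-8 dye, kinetic FDSS fluorescence at 1 s/cycle following a 10-cycle baseline. Cells cultured overnight before dye loading (30 min–1.5 h, RT).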
# D2 antagonist – antagonists of human D2 dopamine receptor; P14416; HEK293 TREx D2 cells, calcium flux, dopamine EC80; inhibition, % at 10 µM; 340,000 tested, 2% active; in the data active means inhibition above about 30%; further: 0% is about no effect
#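 Tetracycline-induced HEK293 T-REx cells expressing D2 force-coupled to calcium signalling were dye-loaded, exposed to compound for 180 s, then challenged with an EC80 of dopamine; calcium flux was followed kinetically for a further 180 s.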
# TrxR1 inh – blocks rat thioredoxin reductase 1. O89049. recombinant rTrxR1, NADPH fluorescence consumption, selenite substrate. Potency, µM (highest dose often 114 µM), inactives show at the highest dose activity change, negative = inhibition, hits mostly inhibitors. 390,000 tested, 1% active. AID 588453; further: potency means the concentration at half of the fitted maximal effect; on the % scale 0 is the no-effect control and ±100 the full control effect; nearly all actives have a fitted effect of over 65% in size
#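 Rat TrxR1 (90 nM in the dispensed reagent) was pre-reduced with 400 uM NADPH for 5 min at room temperature, then incubated with compound for 15 min. After 400 uM selenite was added, NADPH fluorescence (Ex 340/Em 450 nm) was followed for 8 min.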
# PI4K2A inh – blocks human PI4K2A kinase activity; Q9BTU6; purified PI4K2A, ADP-Glo luminescence, 1 h; active compounds read low; activity change, negative = inhibition, % at 76.9 µM; 420,000 tested, 0.13% active; AID 1346378; in the data active means activity change below about -50%; inconclusive means mostly about -30% to -49%;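 further: -100% = wells without enzyme as full effect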
#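 Compounds are screened against recombinant PI4K2A using PI as substrate and ATP, the latter dispensed at 300 microM. Reactions run one hour at ambient temperature before ADP-Glo detection; full inhibition defined by wells lacking enzyme.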
# TrxR1 substrate – rat thioredoxin reductase 1 substrate activity | purified TrxR1 substrate turnover, NADPH consumption readout | Potency, µM (titrated, usually from 114 µM), without a hit: at the highest dose activity change, negative = substrate turnover | 390,000 tested, 0.01% active; further: potency means the concentration at half of the fitted maximal effect; on the % scale 0 is the no-effect control and ±100 the full control effect; nearly all actives have a fitted effect of over 50% in size
#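 Rat TrxR1, dispensed at 90 nM, was prereduced with 400 uM NADPH (final) for 5 min at ~22 deg C, then incubated with compound 15 min before 400 uM selenite. A first-read NADPH fluorescence drop versus no-compound background flagged substrates.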
# TRHR enhancer – allosteric enhancers of human TRH receptor; enhancement, % at 2 µM; 360,000 tested, 0.66% active; AID 493056; P34981; TRHR cells, fluo-8 calcium fluorescence, EC20 TRH enhancement; in the data active means enhancement above about 30%; further: 0% is about no effect
#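 Enhancer read-out: after compound pinning and an initial kinetic agonist-mode read, an EC20 of TRH (10 nM final) was injected and fluo-8 calcium signal (Ex 480/Em 530) followed at 1 s/cycle for 100 cycles in TRHR-expressing cells.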
# D2 ag – activates the human D2 dopamine receptor | activation, % at 2 µM | P14416 | 340,000 tested, 0.53% active | HEK293 T-REx D2 cells, calcium flux agonist mode;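 active means activation over 3 SD above normal in the single-dose calcium agonist read, cut at about 30% in these data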; further: 0% is about no effect
#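 HEK293 Trex D2 cells, tetracycline-induced, o/n 30 C 5% CO2; no-wash Ca dye, RT 30–90 min; 10-cycle baseline, 23 nl cpd added, kinetic Ca read 180 s; agonist hits = positive Ca response.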
# An asterisk follows results filed as active; ? = inconclusive; · = no result given; & = joins results of further samples; [ ] = remark or other dose. Unless noted, the call rests on the fitted dose curve; in most records, active means well fitted inhibition curve with a large enough effect; inconclusive means small, poorly fitted or top-dose-only effect; inactive means no such curve, though single readings can be large or run the other way. Not all compounds are listed; rates above refer to the full screens.
SMILES,IDH1 R132H inh,TRHR agonist,D2 antagonist,TrxR1 inh,PI4K2A inh,TrxR1 substrate,TRHR enhancer,D2 ag
CCN1CCCC1CNC(=O)c1cc2c(-c3cccc(OC)c3)nn(C)c2s1 (configuration not stated),3%,0.4,10,-7%,-2,46%[activator],-3,2.5
Cc1ccc(NC(=O)c2ccc(N/N=C/c3cccc(O)c3)c([N+](=O)[O-])c2)cc1,-3%,0.5,-20,4%[57.1 µM],-3,2%[57.1 µM],4,0.3
COC(=O)/C=C/c1ccc(OC(=O)OC)c(OC(=O)OC)c1,-1%,-1.0,14,-15%,-3,-12%,-4,7.1
CC1(C)NC(=O)N(CNc2cc(Cl)ccc2Cl)C1=O,2%,-0.8,0,-1%,-3,-1%,-4,-0.8
COc1ccc(C(c2nnnn2C2CCCC2)N2CCc3ccccc3C2)cc1OC (configuration not stated),7%,-1.0,26,7%[57.1 µM],7,-6%[57.1 µM],1,0.4
CC(=O)c1ccc(NC(=O)Cn2cnc(S(=O)(=O)N3CCC(C)CC3)c2)cc1,4%,0.1,5,-7%,0,-6%,-5,-1.0
C=CCn1c(CCNC(=O)c2ccccc2F)nnc1SCC(=O)Nc1ccccc1F,-1%,0.4,-11,6%,1,-1%,-3,0.0
COc1cc(C(=O)OC2CCCCC2=O)cc(OC)c1C (configuration not stated),1%,-0.5,-11,0%[57.1 µM],-10,3%[57.1 µM],-11,0.4
COc1cc(O)ccc1C(=O)CCc1ccc(O)cc1,9%,1.3,-3,-1%[57.1 µM],2,-9%[57.1 µM],4,-0.6
COc1ccc(/C=N/Nc2cc(C)nc(-n3nc(C)cc3C)n2)cc1,7%,-0.3,-3,-20%,-3,-19%,1,-0.7
COc1cccc(OC)c1C(=O)Nc1ccc(C)cc1C(=O)c1ccccc1,4%,-1.6,-9,9%[57.1 µM],-5,-10%,-1,-2.0
COc1ccc(CSc2nnc(-c3ccncc3)n2C)cc1F,-4%,-1.1,-10,23%,7,7%,1,-0.7
O=C(Nc1nc2n(n1)C(c1ccc(F)cc1)C=C(c1ccccc1)N2)c1ccco1 (configuration not stated),-5%,-0.1,·,12%,-4,-1%,1,4.4
Clc1ccccc1-c1nc(-c2ccccc2)n[nH]1,0%,-0.4,-10,-8%,-4,-11%,11,0.8
COc1cccc2cc(-c3nc4sc(C(=O)Nc5ccc(F)cc5F)c(C)c4c(=O)[nH]3)c(=O)oc12,-14%,0.0,·,3%[57.1 µM],2,-4%[57.1 µM],2,0.1
CCOc1ccc(/C=C/c2nc(C#N)c(N3CCCCCC3)o2)cc1,8%,-0.8,·,24%,-3,66%[activator],-8,-1.2
Cc1cc(C(F)(F)F)nc(SCc2ccc(C(=O)O)o2)n1,5%,0.3,-1,?,-2,7%[57.1 µM],1,0.4
CC(=O)N/C(=C\c1ccccc1)C(=O)OC(C)C(=O)Nc1ccccc1F (configuration not stated),-1%,-2.2,0,12%,1,-5%,-9,0.5
CCOC(=O)c1c(C)oc2ncnc(N3CCN(c4ccccc4OC)CC3)c12,-17%,-1.6,·,6%,-2,-6%,26,-1.0
CCO/C=C1\C(=O)N(c2ccccc2)C(=O)c2ccccc21,-2%,-0.1,11,-11%,-5,43%[activator],1,-0.1

# 6 compounds picked at random from those above:
SMILES,IDH1 R132H inh,TRHR agonist,D2 antagonist,TrxR1 inh,PI4K2A inh,TrxR1 substrate,TRHR enhancer,D2 ag
CCO/C=C1\C(=O)N(c2ccccc2)C(=O)c2ccccc21,-2%,-0.1,11,-11%,-5,43%[activator],1,-0.1
CC(=O)N/C(=C\c1ccccc1)C(=O)OC(C)C(=O)Nc1ccccc1F (configuration not stated),-1%,-2.2,0,12%,1,-5%,-9,0.5
COC(=O)/C=C/c1ccc(OC(=O)OC)c(OC(=O)OC)c1,-1%,-1.0,14,-15%,-3,-12%,-4,7.1
COc1cccc2cc(-c3nc4sc(C(=O)Nc5ccc(F)cc5F)c(C)c4c(=O)[nH]3)c(=O)oc12,-14%,0.0,·,3%[57.1 µM],2,-4%[57.1 µM],2,0.1
Cc1ccc(NC(=O)c2ccc(N/N=C/c3cccc(O)c3)c([N+](=O)[O-])c2)cc1,-3%,0.5,-20,4%[57.1 µM],-3,2%[57.1 µM],4,0.3
CC1(C)NC(=O)N(CNc2cc(Cl)ccc2Cl)C1=O,2%,-0.8,0,-1%,-3,-1%,-4,-0.8

# Remaining list, next part.
SMILES,IDH1 R132H inh,TRHR agonist,D2 antagonist,TrxR1 inh,PI4K2A inh,TrxR1 substrate,TRHR enhancer,D2 ag
COc1cc2cnc(-c3ccccc3)c(-c3ccc(C(F)(F)F)cc3)c2cc1OC,?,-0.1,-8,15%[57.1 µM],-8,5%[57.1 µM],7,0.1
COC(=O)[C@@H](CC(C)C)NS(=O)(=O)N(Cc1ccccc1)[C@@H](CC(C)C)C(=O)OC,5%,0.5,2,9%&13%,-2,-4%&-12%,-4,-0.6
COc1ccc(/C=C/C(=O)c2cc(F)ccc2OC(=O)c2ccccc2C)cc1OC,3%,0.9,3,-13%,2,-15%,-2,2.3
COc1ccc(Nc2nc3ccccc3nc2NS(=O)(=O)c2ccc(NC(C)=O)cc2)cc1,0%,0.0,6,13%,-4,-1%,-1,1.7
Nc1nc2nc(-c3cccs3)cc(C(F)(F)F)n2n1,2%,-0.1,-1,77%[activator][57.1 µM],2,525%[activator][57.1 µM],-5,0.7
CC(C)NC(=O)NC(=O)COC(=O)Cc1c(F)cccc1Cl,-6%,-0.9,-2,-24%,1,?,5,0.3
Cc1ccc(CNC(=O)C2CCN(S(=O)(=O)c3cn(C)cn3)CC2)cc1,-15%,1.1,·,4%[57.1 µM],6,-5%[57.1 µM],-5,0.6
COc1ccc(/C(C)=N/NC(=O)c2ccc(NS(=O)(=O)c3cccs3)cc2)cc1,-8%,-0.6,5,-12%,2,-11%,2,1.5
COc1cc(/C=C/C(=O)O)cc(S(=O)(=O)NNC(=O)c2cc(C)oc2C)c1OC,6%,·,·,-29%,-4,-4%,·,·
COc1ccc(C2SCC(C(=O)NCc3ccc(F)cc3)N2C(C)=O)cc1 (configuration not stated),8%,1.1,4,-1%,-1,1%,-7,0.1
CCOc1ccccc1CNC(=O)Nc1cn(CC(C)C)c(=O)c2ccccc12,-11%,-0.6,·,-13%,?,21%,13,-0.2
CCOC(=O)[C@@H](C)N(Cc1ccc(OC)cc1)S(=O)(=O)N(Cc1ccccc1)[C@H](C(=O)OC)C(C)C,7%,1.3,2,12%&9%,-2,-3%&-7%,-3,3.9
CCN(C(=O)c1cc2c(=O)n3ccccc3nc2n1C)C1CCCCC1,5%,-0.7,20,6%,-2,447%[activator],0,-0.3
Cc1cccc(NC(=O)Nc2nnc(N(C)Cc3ccccc3)s2)c1,-17%,-0.3,·,3%,1,-10%,-11,·
O=C(Nc1ccccc1C(=O)O)c1cc(S(=O)(=O)N2CCOCC2)c(Br)s1,10%,-0.6,0,-6%,-5,-6%,45*,0.6
COc1ccc(NC(=O)c2ccc(-c3csc(C)n3)cc2)cc1,-1%,0.3,-5,0%,1,0%,-1,-0.1
CCOc1ccc(NC(=O)C(CC(C)C)N2Cc3ccccc3C2=O)cc1 (configuration not stated),-12%,0.2,·,6%,-4,-4%,9,-0.9
Cc1ccc(CNC(=O)C2(S(=O)(=O)c3ccccc3)CC=CC2)cc1,5%,-1.1,14,30%[57.1 µM],0,8%,4,0.1
CCOc1cc(S(=O)(=O)NCCN2CCOCC2)c(C)cc1C,11%,-0.5,-7,7%[57.1 µM],-3,-9%[57.1 µM],7,0.1
CCC(=O)/C=C1/Sc2ccccc2N1CC,7%,-0.3,-18,2%[57.1 µM],-5,-2%[57.1 µM],5,-0.4
O=C(N/N=C/c1ccc([N+](=O)[O-])cc1)c1ccc(NS(=O)(=O)c2cccs2)cc1,-6%,4.7,-5,-6%,-1,-12%,-1,0.0
Cc1ccc(C(=O)NCCSc2ccccc2)cc1S(=O)(=O)Nc1ccccc1,-3%,0.5,6,-14%,-3,-15%,-6,-0.1
Cc1c(OC(C)C(=O)N2C[C@H]3C[C@@H](C2)c2cccc(=O)n2C3)ccc2c3c(c(=O)oc12)CCCC3 (some centres not stated),-9%,-0.3,11,16%[57.1 µM],2,28%[57.1 µM],-4,0.9
Cc1ccn2c(=O)c(C(=O)NC3CCCCC3C)c(O)nc2c1 (configuration not stated),3%,-0.1,-7,-10%[57.1 µM],2,15%[57.1 µM],4,-0.2
N#Cc1c(N)n(-c2ccccc2N)c2nc3ccccc3nc12,7%,0.0,2,-12%,-18,5%,-1,0.5
COC(=O)c1nc2nc(-c3cccs3)cc(C(F)(F)F)n2n1,12%,-0.2,-13,28%,-5,373%[activator],-2,2.2
CC(=O)Cc1nsc(NC(=O)c2ccc(-c3cc(C(F)(F)F)ccc3Cl)o2)n1,8%,-0.2,-14,18%,3,10%,0,-1.8
c1ccc(-c2nc(CSc3n[nH]c(-c4cccs4)n3)cs2)cc1,0%,-1.5,-15,-5%,-1,-13%,10,0.5
O=C(O)c1c2c(nc3ccccc13)/C(=C/c1c(F)cccc1F)CCC2,?,-1.6,-2,8%,3,0%,-1,0.3
COc1ccc2cc3cc(C(=O)NCCN4CCc5ccccc5C4)sc3nc2c1,2%,0.9,19,5%,-2,35%[activator],8,72*
CCCCCSc1nc(O)cc(=O)[nH]1,4%,0.2,-10,23%[57.1 µM],-4,10%[57.1 µM],-3,-2.2
CC(=O)Nc1nc2n(n1)C(c1ccc(Cl)cc1)C=C(C)N2 (configuration not stated),-6%,-0.8,-28,?,-3,323%[activator],3,1.5
N#Cc1ccc(-c2cccnc2)nc1SCc1ccc(Cl)cc1Cl,0%,0.8,-20,40%[activator],1,34%[activator],1,1.4
CCOC(=O)c1cc(Br)c(=O)n2ccccc12,3%,0.0,-9,-13%,-2,14%,-4,0.7
C=CCNC(=O)NC(=O)CSc1nnc(C(F)(F)F)n1C,3%,-0.3,3,15%,1,4%,1,-0.2
N#Cc1c(N)n(CCOC(=O)c2cccc(Br)c2)c2nc3ccccc3nc12,5%,-0.1,1,23%,8,34%,-5,-0.2
Cc1cccc(/C=C2/Sc3ccc(C(=O)N4CCOCC4)cc3NC2=O)c1,1%,-0.5,-29,-16%,-2,-4%,5,0.3
NNC(=O)c1cc2nc(-c3cccs3)cc(C(F)(F)F)n2n1,7%,0.1,-1,-3%,-1,7%,-6,0.4
C/C(=N\NC(=O)c1ccccc1[N+](=O)[O-])c1c(O)cc(C)oc1=O,8%,0.4,-2,12%[57.1 µM],0,-12%[57.1 µM],1,0.5

# High-throughput results as filed in PubChem.
